Source: PubChem
VDR inhibitor: vitamin D3 receptor (human) inhibition; AID 504847; Potency, µM, for inactives: max response, negative = inhibition, usual class: inhibitors; P11473; 0.93% of 400,000 active; VDR-SRC2-3 peptide fluorescence polarization, 2 h; active = well fitted inhibition curve with a large enough effect; inconclusive = small, poorly fitted or top-dose-only effect, or another doubt; inactive = no such curve, though single readings can be large or run the other way; note: series mostly up to about 120 µM
Target sequence (P11473 whole entry, looked up): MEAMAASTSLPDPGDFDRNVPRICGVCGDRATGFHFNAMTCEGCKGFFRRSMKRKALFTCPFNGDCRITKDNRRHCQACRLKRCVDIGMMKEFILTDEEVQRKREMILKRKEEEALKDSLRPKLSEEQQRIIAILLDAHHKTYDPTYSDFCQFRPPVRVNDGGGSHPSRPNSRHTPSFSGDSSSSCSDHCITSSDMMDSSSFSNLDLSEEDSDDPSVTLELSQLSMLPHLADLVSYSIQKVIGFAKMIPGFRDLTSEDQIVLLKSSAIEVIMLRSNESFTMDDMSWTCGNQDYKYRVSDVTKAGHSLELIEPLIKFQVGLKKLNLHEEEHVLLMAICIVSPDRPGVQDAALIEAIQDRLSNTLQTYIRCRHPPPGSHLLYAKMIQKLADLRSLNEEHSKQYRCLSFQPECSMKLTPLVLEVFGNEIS
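Compounds are added to VDR with labelled SRC2-3 coactivator peptide and held 2 h at room temperature. Inhibition of the VDR–peptide interaction is then read as a change in fluorescence polarization.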
* = called active by the depositor; ? = inconclusive; & = joins results of further samples. % is set by controls: 0 for no effect and ±100 for the full control effect; potency is the fitted concentration of half-maximal effect. Only part of the results is shown (hit frequency here may not be typical).

SMILES	VDR inhibitor
COc1ccc(Cl)cc1NC(=O)CN(C)C(=O)CN1C(=O)NC(C)(c2ccc3ccccc3c2)C1=O (stereo not drawn)	-3%
CCOC(=O)C(CCCOc1ccccc1)C(=O)OCC	-3%
O=C(N/N=C/C=C/c1ccco1)/C(=C/c1ccccc1)NC(=O)c1ccccc1	?
COC(=O)c1ccc(NC(=O)CCNS(=O)(=O)c2cccc3nonc23)cc1	1%
COc1ccc(OCc2cccc(C(=O)Nn3cc([N+](=O)[O-])cn3)c2)cc1	25%
O=C(CNC(=O)c1ccccc1F)Nc1ccccc1C(F)(F)F	-20%
Cc1ccc(NS(=O)(=O)c2ccc3c(c2)OCCCO3)cc1S(=O)(=O)N1CCOCC1	-2%
CC(Sc1ccccc1)C(=O)NNC(=O)c1ccncc1 (stereo not drawn)	-3%
Cc1cc(C)cc(NC(=O)COc2ccc(C(=S)N3CCOCC3)cc2)c1	6%
CCCN1C(=O)c2cc(C(=O)NCc3ccc(OC)cc3)ccc2C1O (stereo not drawn)	9%
CCOC(=O)C1=CN(Cc2cccc(Br)c2)S(=O)(=O)N(CC)C1C (stereo not drawn)	-4%
CC[C@]12c3[nH]c4ccc(Cl)cc4c3CCN1C(=O)[C@@H](CC(=O)NCCCN(C)C)C[C@@H]2C(=O)N1CCN(C(=O)c2ccco2)CC1	-16%
Cc1ccc(-c2[nH]nc3c2C(c2cccnc2)C(C#N)=C(N)O3)cc1 (stereo not drawn)	9%
COc1ccccc1CNC(=O)CS(=O)(=O)c1cccc2nsnc12	6%
CCN1CCN(S(=O)(=O)c2ccc(Cl)c(C(=O)NCCc3ccccc3)c2)CC1	5%
Cc1cccc2cc(COC(=O)COc3ccccc3)c(=O)[nH]c12	-4%
CN(CC(=O)Nc1cccc(Cl)c1)S(=O)(=O)c1ccc2[nH]c(=O)oc2c1	0%
COc1ccc(CNC(=O)c2cnc(N3CCCC3)nc2C)c(OC)c1	6%
COc1ccc(-c2cc(=O)c(C(=O)c3ccc(C)cc3)n[nH]2)cc1	9%
CC1=NN(C(N)=S)C(=O)C1N=Nc1ccccc1Cl (stereo not drawn)	-12%
COc1ccc(C(=O)Oc2cc(/C=N/NS(=O)(=O)c3ccccc3)ccc2OC)cc1	15%
CCn1c(SCC(=O)NC(=O)NCc2ccco2)nc2sc(C)c(C)c2c1=O	8%
CCOC(=O)C1(CCOc2ccccc2)CCN(Cc2cnc(C)[nH]2)CC1	0%
O=C(OCC(=O)N1CCc2ccccc21)c1nc(Cl)ccc1Cl	-4%
O=C(c1ccc2c(c1)OCO2)N(CC1CCCO1)C1(C(=O)NC2CCCC2)CCCCC1 (stereo not drawn)	4%
CCCC(=O)Nc1c(-c2cccs2)c(=O)c2ccccc2n1C	7%
CCNC(=O)NC(=O)C(C)Sc1nc2cc(C(=O)OC)ccc2c(=O)n1-c1ccccc1 (stereo not drawn)	-6%
COc1cccc(N2CC(C(=O)Oc3ccc4ccccc4c3)CC2=O)c1 (stereo not drawn)	0%
CC(=O)NC(CC(=O)NCC(c1ccco1)N(C)C)c1ccccc1 (stereo not drawn)	-9%
Cc1c(Cc2ccccc2)c(=O)oc2cc(OCC(=O)N3CCC(C(N)=O)CC3)ccc12	1%
Cc1ccc(C)n1-c1ccc(C(=O)/C=C/N(C)C)cc1	-8%
Cc1ccc(CCNC(=O)c2sc3nc4n(c(=O)c3c2C)CCC4)cc1	?
CCc1ccc(-n2c(CCC(=O)O)ccc2-c2ccc(F)cc2)cc1	-29%
CN(C)c1nc(OCCNC(=O)COc2ccccc2Cl)nc(N(C)C)n1	17%
O=C(c1cnc(N2CCN(c3ncccn3)CC2)c2ccccc12)N1CCN(c2ncccn2)CC1	-13%
O=C(CSc1ccc(Cl)cc1)N1CCN(c2ccc(Cl)cc2[N+](=O)[O-])CC1	1%
COc1ccc(CC(=O)N2CCCC(C)C2)cc1 (stereo not drawn)	-15%
O=C1C(Cc2ccc(O)cc2)NC(=S)N1c1ccccc1 (stereo not drawn)	5%
COc1ccc2cc(CN(CC3CCCO3)S(=O)(=O)c3ccc(C(C)=O)cc3)c(=O)[nH]c2c1 (stereo not drawn)	-20%
O=C(/C=C/c1ccc(S(=O)(=O)N2CCOCC2)cc1)NCc1ccccc1Cl	2%
O=C(CSc1nc2c(c(=O)n1-c1ccc(Br)cc1)SCC2)NCC1CCCO1 (stereo not drawn)	-2%
CCOc1cc(/C=C2\C(=O)N(c3nc(-c4ccc(Br)cc4)cs3)N=C2c2ccccc2)ccc1O	-15%
CCC1(C)Cc2ccccc2-c2c1c(=O)n(-c1ccc(C)cc1)c1nnnn21 (stereo not drawn)	2%
Cc1ccc(/C=C2/CNC/C(=C/c3ccc(C)cc3)C2=O)cc1	?
COc1ccc(-n2c(CCC(=O)O)ccc2-c2ccccc2)c(OC)c1	7%
COc1cccc(-c2cc3nc(-c4ccccc4)cc(N4CCCC(O)C4)n3n2)c1 (stereo not drawn)	2%
CCCCCCOc1ccc(-c2nc3ccc(Br)cc3c(=O)o2)cc1	-6%
O=C(CSc1nnc(CNC(=O)c2ccco2)o1)Nc1ccccc1F	-5%
CC(C)C(OC(=O)c1cc2occc2n1C)C(=O)NCc1ccc2c(c1)OCO2 (stereo not drawn)	6%
Cc1ccc(OCC(=O)Nc2ccc(NC(=O)c3ccccc3)c(C)c2)cc1	11%
CCN(CC)C(=O)c1ccc(COc2ccccc2Cl)o1	-6%
CC(=O)Nc1ccc2nc(-c3cccs3)[nH]c2c1	6%
Cc1ccc2[nH]cc(CCNC(=O)c3ccc([N+](=O)[O-])cc3)c2c1	-2%
c1cc2c(cnc3cscc32)s1	20%
Cc1ccc(N)c(Cl)c1	7%
Cn1nccc1C(=O)N1CCOCC1	-8%
CCN(CC(=O)NCc1ccc(Cl)cc1)C(=O)Cc1ccc(OC)cc1	-8%
COc1ccc(-c2noc(CNS(=O)(=O)c3ccc(NC(C)=O)cc3)n2)cc1	-20%
O=C(Nc1ccccc1N1CCOCC1)c1csc2c1CCCC2	6%
CC(C)CN1C(=O)C(=O)N(CC(=O)Nc2cc(Cl)ccc2Oc2ccccc2)C1=O	-3%

Of the compounds above, 7 contain a furan ring, fused or not.
SMILES	VDR inhibitor
O=C(N/N=C/C=C/c1ccco1)/C(=C/c1ccccc1)NC(=O)c1ccccc1	?
CC[C@]12c3[nH]c4ccc(Cl)cc4c3CCN1C(=O)[C@@H](CC(=O)NCCCN(C)C)C[C@@H]2C(=O)N1CCN(C(=O)c2ccco2)CC1	-16%
CCn1c(SCC(=O)NC(=O)NCc2ccco2)nc2sc(C)c(C)c2c1=O	8%
CC(=O)NC(CC(=O)NCC(c1ccco1)N(C)C)c1ccccc1 (stereo not drawn)	-9%
O=C(CSc1nnc(CNC(=O)c2ccco2)o1)Nc1ccccc1F	-5%
CC(C)C(OC(=O)c1cc2occc2n1C)C(=O)NCc1ccc2c(c1)OCO2 (stereo not drawn)	6%
CCN(CC)C(=O)c1ccc(COc2ccccc2Cl)o1	-6%

(more compounds)
SMILES	VDR inhibitor
O=C(Nc1ccc(F)cc1)c1cc2ccccc2o1	-7%
COc1ccc2oc(C(=O)Nc3ccccc3N3CCOCC3)c(C)c2c1	29%
COc1ccc(Cl)cc1NC(=O)CN(c1cccc(C)c1C)S(C)(=O)=O	-5%
Cc1ccc(NC(=O)C2CCN(C(=O)c3cnn(-c4ccccc4)c3-n3cccc3)CC2)cc1C	4%
O=C(C1CCCN1S(=O)(=O)c1cccc2cccnc12)N1CCN(c2ccccc2)CC1 (stereo not drawn)	-12%
Cc1cc(OCC(=O)NC2CCN(C)CC2)ccc1[N+](=O)[O-]	16%
CC(=O)Nc1cccc2c1C(=O)N(c1ccc(C)cc1)C2=O	9%
CC1(C(=O)NNC(=O)c2cccc([N+](=O)[O-])c2)CC1(Br)Br (stereo not drawn)	-4%
C=C(C)C(=O)N1CCN(C(=O)C(=C)C)c2ccccc21	-15%
COc1ccccc1N1CCN(/N=C/c2ccc(O)cc2O)CC1	-17%
CCOc1ccc(Nc2ncnc3c2cnn3-c2ccc(F)cc2)cc1	6%
COc1ccc(-c2nc3nc(C)c(Cc4ccccc4)c(=O)n3[nH]2)cc1	3%

Quoted from the listing:
Under VDR inhibitor, Cc1ccc(NC(=O)C2CCN(C(=O)c3cnn(-c4ccccc4)c3-n3cccc3)CC2)cc1C shows 4%
Under VDR inhibitor, CCOc1ccc(Nc2ncnc3c2cnn3-c2ccc(F)cc2)cc1 shows 6%
Under VDR inhibitor, O=C(Nc1ccc(F)cc1)c1cc2ccccc2o1 shows -7%

(listing goes on)
SMILES	VDR inhibitor
CCN(CC)CC#CCC1(O)c2ccccc2-c2ccccc21	91%
Cc1ccc(NC(=O)OC(C)CNC(=O)Oc2cccc(C)c2)cc1 (stereo not drawn)	-14%
CC(C(=O)NCc1cccs1)N1C(=O)c2ccccc2C1=O (stereo not drawn)	12%
O=C1CCCN1CC(=O)N1CCCC(N2CCN(c3cccc(Cl)c3)CC2)C1 (stereo not drawn)	-24%
CCNc1nc(NC(C)(C)C)nc(Oc2ccc(=O)n(-c3ccccc3)n2)n1	-11%&-5%
COc1ccc(C2C(=O)N(C3CCC(C)CC3)CC(=O)N2CCC2=CCCCC2)cc1OC (stereo not drawn)	18%
CCOc1ccccc1CNC(=O)CCC(=O)N1Cc2ccccc2Oc2ncccc21	3%
Clc1ccc(-c2c[nH]c3ccccc23)nn1	5%
COC(=O)/C(=C(/F)Sc1cc(C)c(O)c(C)c1)C(F)(F)F	1%
Cc1cccc(OC(C)C(=O)Nc2nonc2-c2ccc(Br)cc2)c1C (stereo not drawn)	25%
COc1ccc(NC(=O)CN(C)C(=O)Cn2c(=O)oc3ccccc32)cc1	2%
O=C(O)C(c1ccccc1)C(O)C1CCCC1 (stereo not drawn)	-12%
CC(C)OC(=O)c1ccc(COC(=O)CNC(=O)c2ccco2)cc1	-7%
O=C(O)CCNS(=O)(=O)c1cccc2nsnc12	-7%
CN(C(=O)c1ccc(NC(=O)Cc2cccc(NC(=O)C3CCN(C(=O)C4CC4)CC3)c2)cc1)C1CC1	9%
COc1ccc(C(=O)NC(NC(=S)Nc2ccc(S(N)(=O)=O)cc2)C(Cl)(Cl)Cl)cc1 (stereo not drawn)	?
O=C(Nc1ccc(Br)cc1F)C1CCCO1 (stereo not drawn)	-5%
Nc1cc(-c2ccc(OC(F)(F)F)cc2)nn1-c1ccc(Cl)c(Cl)c1	-6%
COc1cc(-c2nc(-c3ccc(Br)o3)no2)cc(OC)c1OC	6%
COc1ccc(N2C(=O)c3ccccc3NC23CCCC3)cc1	-6%
CC(=O)c1ccc(NC(=O)/C(=C\c2ccc(F)cc2)NC(=O)c2ccco2)cc1	-1%
Cc1sc(-c2ccncc2)nc1OC(=O)c1cc(Cl)cc(Cl)c1	1%
CN(C)c1nn(C(=O)Nc2cccc(C(F)(F)F)c2)cc1-c1ccccc1	4%
O=C(Nc1ccc2oc(-c3cccc4ccccc34)nc2c1)c1ncn[nH]1	-2%
Cc1cccc(C(=O)O/N=C2\CCSc3ccc(C)cc32)c1	12%
CC(=O)Nc1ccc(S(=O)(=O)NC2CC(=O)N(c3ccc4c(c3)OCCO4)C2)cc1 (stereo not drawn)	2%
CCOC(=O)C1CCN(C2=NC(=O)/C(=C/c3ccc(O)cc3)S2)CC1	-9%
COCc1cc(=O)n2[nH]c(C)c(-c3ccccc3)c2n1	2%
CC(C)(C)c1cc(N2CCOCC2)n2ncc(-c3ccccc3)c2n1	8%
Cc1ccccc1NC(=O)c1cccc2nc3ccccc3nc12	-13%
COc1ccc(COc2cc(-c3cccc(OC)c3)nc3ccc(NC(=O)C(C)C)cc23)cc1	-4%
CN(C)CCCN(C(=O)COc1ccccc1)c1nc2c(Cl)cccc2s1	-11%
CCOC(=O)c1ccc(NC(=O)Cc2coc3cc(C)cc(C)c23)cc1	5%
Cn1c(=O)n(C/C=C/c2ccccc2)c(=O)c2c1nc1n2CCN1c1ccccc1	5%
CC1(C)CC(=O)C(C(N)=NC(=O)c2ccc([N+](=O)[O-])cc2)=C(O)C1	-16%
COc1ccc(NC(=O)CSc2nc3c(oc4ccccc43)c(=O)n2-c2ccc(C)c(C)c2)cc1	-2%
Cc1ccc(-c2nc3c(c(SCc4ccc(Br)cc4)n2)Cc2c(CO)cnc(C)c2O3)cc1	-2%
O=C(CSc1nccc(=O)[nH]1)c1ccccc1Br	?
COc1cccc(OC)c1NC(=O)NC(=O)c1c(OC)c(Br)cc([N+](=O)[O-])c1OC	-1%
CCc1nnc(NC(=O)CSc2nccn2-c2cccc(C)c2C)s1	14%
CCOCCCNC(=O)Cn1ncc2c([nH]c3ccc(C)cc32)c1=O	-3%
Cc1ccc(S(=O)(=O)N2[C@@H](c3ccc(Cl)cc3)C(C(=O)O)=CC[C@H]2c2ccc(Cl)cc2)cc1	-23%
O=C(CSc1oc(-c2ccc(F)cc2)nc1S(=O)(=O)c1ccc(Br)cc1)NC1CCCCC1	2%
CCc1nnc(NC(=O)CSc2nnc(CSc3nc(C)cc(C)n3)n2C)s1	-6%
CCc1ccc(NCc2cc3cc4c(cc3n(CC(=O)Nc3ccc(Cl)cc3)c2=O)OCO4)cc1	5%
COc1cccc(C2CC(c3ccc(Cl)cc3)n3nc(N)nc3N2)c1 (stereo not drawn)	?
Cc1ccc(S(=O)(=O)N2[C@@H](c3ccc(Br)cc3)C(C(=O)O)=CC[C@H]2c2cccs2)cc1	-12%
CCC(C)c1ccccc1NC(=O)COC(=O)c1ccc(C)c(NC(=O)c2ccco2)c1 (stereo not drawn)	-7%
COc1ccc([N+](=O)[O-])cc1N(CC(O)CN(C)C)S(=O)(=O)c1ccc(C)cc1 (stereo not drawn)	-11%

Reprinted at random: 2 records from the list
SMILES	VDR inhibitor
O=C(CSc1oc(-c2ccc(F)cc2)nc1S(=O)(=O)c1ccc(Br)cc1)NC1CCCCC1	2%
Cc1ccc(S(=O)(=O)N2[C@@H](c3ccc(Br)cc3)C(C(=O)O)=CC[C@H]2c2cccs2)cc1	-12%
